# Compound activity (PubChem BioAssay)
# AID504770: E. coli YBA685 growth inhibition, screen for V. cholerae RctB inhibitors | E. coli YBA685 rctB-dependent plasmid, OD600 growth, 3 h; stronger effect = lower value | z-score (no concentration beside the values) | 130,000 tested, 0.27% active;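 active means z-score under -2 on both plates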;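 further: wells of about 30 µL received 100 nL stock; score is relative to mean and SD of the test wells; the first replicate is given; strong numbers were not always called active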
# Ba CapD inh: blocks the Bacillus anthracis CapD enzyme; 140,000 tested, 0.23% active; purified CapD enzyme, fluorescence intensity read-out; stronger effect = lower value; some hits fall short of the stated cut; z-score (no concentration beside the values);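 active means z-score under -4 in either of two replicates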;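 further: stock transfer was 100 nL into about 40 µL; score is relative to mean and spread of the plate; one replicate is shown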
# * = called active by the depositor; . = not tested or not shown.
SMILES,AID504770,Ba CapD inh
Clc1ccc(C2Nc3ccc(Br)cc3C(c3ccccc3)O2)cc1 (configuration not stated),.,0.54
CC(C)(C)OC(=O)N1CCC(CNC(=O)c2ccc(F)cc2)CC1,-0.35,-1.5
CCCCC(C(=O)Nc1ccccc1C)N1C(=O)C2C3c4ccccc4C(c4ccccc43)C2C1=O (configuration not stated),.,-0.08
CCC(CC)NC(=O)COc1nc2ccccc2nc1C,0.75,.
Cn1c2c(c(=O)n(C)c1=O)CN(CC1CC1)CN2,-0.45,-0.005
CC1(C)CC(=S)C=C(N2CCOCC2)C1,-0.45,.
C=C1c2ccccc2NC(=O)N1c1ccccc1,0.95,0.41
O=C(O)c1sc(C(=O)O)c(-c2ccco2)c1-c1ccco1,0.25,-0.005
O=C(NC1CCCc2ccccc21)c1ncoc1-c1cccs1 (configuration not stated),0.95,67
CC(C)c1[nH]nc2oc(=N)c(C#N)c(-c3c(O)[nH]c4ccc(Br)cc34)c12,-0.15,0.41
Cc1ccc(C)c(NC(=O)C(c2ccccc2)N2CCCCC2C(N)=O)c1 (configuration not stated),0.1,.
CN(Cc1ccccc1)S(=O)(=O)c1ccc2c(c1)SCC(=O)N2,-0.65,0.66
COc1ccc(-c2cc(C(=O)Nc3cccc([N+](=O)[O-])c3)c3ccccc3n2)cc1OC,.,0.01
Cc1ccc2nc3sc4ccc(Cl)cc4n3c(=O)c2c1,.,0.095
Clc1ccc(Cn2nnc(-c3ccccc3)n2)cc1,-0.8,0.29
CCn1c(-c2cc(OC)ccc2OC)csc1=Nc1ccc(O)cc1,-0.15,.
CSc1ncc(C(=O)OC(C)c2nc3ccccc3c(=O)[nH]2)n1-c1ccc(F)cc1 (configuration not stated),0.15,.
O=C(CCN1C(=O)/C(=C/c2cccc(Br)c2)SC1=S)Nc1nccs1,.,-1
Cc1coc2cc3oc(=O)c(-c4ccccc4)cc3cc12,2,21
CCCNc1sc(S(C)(=O)=O)nc1S(=O)(=O)c1ccc(Cl)cc1,1.4,.
C[N+]1(CCOc2ccccc2)Cc2ccccc2C1,-0.65,-0.46
OC(COCc1cccs1)CN1CCCCCC1 (configuration not stated),-0.05,0.18
c1ccc2c(c1)NCCS2,-3.8,0.88
NC(N)=Nc1ccc(Cl)cc1,0,.
CCN(CC)CCSc1nc2ccccc2[nH]1,-0.3,-1.1

# 16 structures out of the list, arranged by number of heavy atoms, low to high.
SMILES,AID504770,Ba CapD inh
c1ccc2c(c1)NCCS2,-3.8,0.88
NC(N)=Nc1ccc(Cl)cc1,0,.
CC1(C)CC(=S)C=C(N2CCOCC2)C1,-0.45,.
CCN(CC)CCSc1nc2ccccc2[nH]1,-0.3,-1.1
OC(COCc1cccs1)CN1CCCCCC1 (configuration not stated),-0.05,0.18
Clc1ccc(Cn2nnc(-c3ccccc3)n2)cc1,-0.8,0.29
Cc1ccc2nc3sc4ccc(Cl)cc4n3c(=O)c2c1,.,0.095
O=C(O)c1sc(C(=O)O)c(-c2ccco2)c1-c1ccco1,0.25,-0.005
CCCNc1sc(S(C)(=O)=O)nc1S(=O)(=O)c1ccc(Cl)cc1,1.4,.
CC(C)(C)OC(=O)N1CCC(CNC(=O)c2ccc(F)cc2)CC1,-0.35,-1.5
O=C(CCN1C(=O)/C(=C/c2cccc(Br)c2)SC1=S)Nc1nccs1,.,-1
CC(C)c1[nH]nc2oc(=N)c(C#N)c(-c3c(O)[nH]c4ccc(Br)cc34)c12,-0.15,0.41
Cc1ccc(C)c(NC(=O)C(c2ccccc2)N2CCCCC2C(N)=O)c1 (configuration not stated),0.1,.
CSc1ncc(C(=O)OC(C)c2nc3ccccc3c(=O)[nH]2)n1-c1ccc(F)cc1 (configuration not stated),0.15,.
COc1ccc(-c2cc(C(=O)Nc3cccc([N+](=O)[O-])c3)c3ccccc3n2)cc1OC,.,0.01
CCCCC(C(=O)Nc1ccccc1C)N1C(=O)C2C3c4ccccc4C(c4ccccc43)C2C1=O (configuration not stated),.,-0.08

# The list continues.
SMILES,AID504770,Ba CapD inh
O=C1CCc2cc(S(=O)(=O)NC(C(=O)NC3CCCC3)c3ccccc3)ccc2N1 (configuration not stated),-0.95,0.075
O=C(c1cccc(N2C(=O)C3C4C=CC(C4)C3C2=O)c1)N1CCN(c2ccc(F)cc2)CC1 (configuration not stated),.,-0.64
CSc1nnc(NC(=O)CSc2nn3c(SCC(=O)Nc4nnc(SC)s4)nnc3s2)s1,.,-0.31
COc1cc(OC)c(C(=O)NC(C)C2CCCO2)cc1OC (configuration not stated),-0.15,5.6
COc1ccc(C2C(C#N)=C(N)Oc3c2c(=O)oc2ccccc32)c(OC)c1OC (configuration not stated),.,1.1
C[C@@H]1O[C@@H](OC[C@H]2OC(Oc3c(-c4ccc(OCCO)c(OCCO)c4)oc4cc(OCCO)cc(O)c4c3=O)[C@H](O)[C@@H](O)[C@@H]2O)[C@H](O)[C@H](O)[C@H]1O (some centres not stated),0.25,.
O=C(O)c1c(CNCc2cccs2)c2ccccc2n1Cc1ccccc1,0.2,1.5
CCC(=O)NCc1ccc2c(c1)cc(C)n2C,-0.25,-0.61
N#C/C(=C\c1cc(Br)ccc1O)c1nc2ccccc2[nH]1,.,0.06
CSc1nc(N)n(-c2cc(Cl)cc(Cl)c2)n1,0,3.7
CCOC(=O)C1=C(c2ccccc2)OC(N)=C(C#N)C1c1ccc(F)c(Br)c1 (configuration not stated),.,0.69
COc1ccc(N2CCN(C(=O)C34CC5CC(CC(C5)C3)C4)CC2)cc1,-0.35,.
CC(OC(=O)c1ccccc1Nc1ccc(SC(F)F)cc1)C(N)=O (configuration not stated),-0.4,.
Nc1nc(-c2sccc2Cl)cs1,-1.6,-0.35
Cc1cc(=O)oc2c(C)c3oc(C(O)c4ccccc4)c(-c4ccccc4)c3cc12 (configuration not stated),.,3.4
Cc1onc(C(=O)NNC(=O)c2ccc(-n3nc(C(C)(C)C)cc3C(C)(C)C)cc2)c1-c1csc(-c2ccccc2)n1,.,0.28
CCCCC1CC(C)(C(=O)Nc2ccc(S(N)(=O)=O)cc2)OC1=O (configuration not stated),-0.95,.
O=C(CCN(Cc1ccco1)S(=O)(=O)c1ccc(Cl)cc1)Nc1ccccc1,-0.3,-0.39
CC(C)NCC(O)Cn1c2ccc(Br)cc2c2cc(Br)ccc21 (configuration not stated),.,-0.51
CCOc1cc(/C=N/NC(=O)C(OC)c2ccccc2)ccc1O (configuration not stated),-0.05,.
Cc1c2cnn(-c3ccccc3)c(=O)c2c(C)n1C(C)C(=O)NCc1ccccn1 (configuration not stated),0.7,0.51
c1ccc(CC(NCc2ccco2)c2ccccc2)cc1 (configuration not stated),0.05,0.14
COc1ccccc1CNS(=O)(=O)c1ccc(F)c(C(=O)Nc2ccc(Br)cc2F)c1,.,-0.08
O=c1[nH]c2cc3c(cc2[nH]1)OCCO3,-0.65,.
COc1ccc(OCCNS(=O)(=O)Cc2ccccc2)cc1,0.8,.
# Next results
SMILES,AID504770,Ba CapD inh
COc1ccc(Nc2nnc(SC3CCOC3=O)s2)cc1 (configuration not stated),0.8,.
Cc1cc(C)c(N=Cc2sccc2C)c(C)c1,-0.35,-0.58
Nc1nc(-c2ccccc2)c(C(=O)Nc2ccccc2)s1,-0.75,-1.4
COC(=O)c1cn(CC(=O)NC2CCCCCC2)c2ccccc12,0.65,.
Cc1ccc(Nc2nc(N)nc(CN3CCC(Cc4ccccc4)CC3)n2)cc1,0.1,0.06
CCOc1cccc(NC(=O)C2CC(=O)N(C)C(=Nc3ccc(C)c(Cl)c3)S2)c1 (configuration not stated),.,-0.08
O=C(CCc1nc2cccnc2n1-c1ccccc1)Nc1ccc2c(c1)OCO2,-0.05,0.53
CN1CCCN(Cc2cc(C(C)(C)C)c(O)c(C(C)(C)C)c2)CC1,0.5,2.1
CC1CC(NC(=S)Nc2ccc(I)cc2F)CC(C)(C)C1 (configuration not stated),-1.2,-0.35
CCn1c(=NC(=O)c2ccc(OC(C)C)cc2)sc2cc3c(cc21)OCO3,0.25,.
O=C(Nc1ccccc1)c1nn(-c2cccc(C(F)(F)F)c2)ccc1=O,.,-1
Cc1ccc(/C=C/C(=O)O)s1,-0.8,.
CCn1nc(C(=O)OCc2csc(C)n2)c2ccccc2c1=O,-0.15,.
O=C1c2ccccc2C(=O)N1C1C(=O)N(c2ccc(Br)cc2)C1c1ccc(F)cc1 (configuration not stated),.,-0.42
CC(C)COC(=O)Oc1ccc(Br)cc1,2,0.09
Cc1[nH]nc(N=CC2=C(O)CCCC2=O)c1-c1ccccc1,0.5,.
O=C(O)C1CCN(c2ncc(-c3ccc(Cl)cc3)cn2)CC1,.,22
Cc1nnc(NC(=O)c2cccc(S(=O)(=O)N3CC(c4ccccc4)CC3=O)c2)s1 (configuration not stated),0.4,-0.23
CCCCn1c(=O)c(CCC(=O)OCc2nnc(-c3cc4c(s3)CCCC4)o2)nc2ccccc21,-0.35,.
O=c1cccc2n1CC1CC2CN(CCO)C1 (configuration not stated),0,-0.17
COc1cc(OC)cc(C(=O)OCc2c(C)noc2C)c1,-0.6,.
N#C/C(=C\C=C\c1ccccc1)c1cccc(Cl)c1,1.1,2.4
Cc1nn(CC(=O)NCCc2c(C)[nH]c3ccc(OCc4ccccc4)cc23)c(C)c1Cl,.,-0.2
COc1ccc(OC)c(-n2c(=S)[nH]c3cc(C(=O)N4CCC(C(N)=O)CC4)ccc3c2=O)c1,0.1,2.2
CCOc1ccc(-c2nc(-c3cc(C)n(C)c3C)cs2)cc1OC,1.2,.

# Reformatted: results already given.
CCOc1cccc(NC(=O)C2CC(=O)N(C)C(=Nc3ccc(C)c(Cl)c3)S2)c1 (configuration not stated)
  AID504770: . | Ba CapD inh: -0.08
O=C(CCc1nc2cccnc2n1-c1ccccc1)Nc1ccc2c(c1)OCO2
  AID504770: -0.05 | Ba CapD inh: 0.53

# Next part.
SMILES,AID504770,Ba CapD inh
Cc1nn(-c2ccccc2)cc1/C=N/NC(N)=S,0.3,-2.9
Cc1cccc(NC(=O)CC2OCCN(Cc3ccccc3)C2=O)c1 (configuration not stated),-1.1,-0.26
COc1cccc(C(=O)Nc2sccc2C#N)c1,1,.
O=C1C2C3C=CC(C3)C2C(=O)N1CN(Cc1ccccc1)CN1C(=O)C2C3C=CC(C3)C2C1=O (configuration not stated),-1.1,.
Cc1c(C)n(CC(O)CNCc2ccco2)c2ccccc12 (configuration not stated),0.2,.
COc1cc(Cc2nnc(C(=O)NCc3ccccc3)o2)cc(OC)c1OC,-1.1,-0.28
CC(OC(=O)c1ccccc1Oc1ccccc1)C(=O)NC1CC1 (configuration not stated),-0.6,.
O=C(Nc1ccc(OCC(O)Cn2c3ccccc3c3ccccc32)cc1)c1ccccc1 (configuration not stated),0.65,-0.06
CCOc1nc(NCc2ccco2)nc(N2CC3CC(C2)c2cccc(=O)n2C3)n1 (configuration not stated),-0.3,.
O=c1oc2ccccc2c(Cl)c1CN1CCCC1,0,0.44
O=C(O)/C=C/c1cc(Cl)c2c(c1)OCO2,-0.25,.
CCc1c(C#N)c(SC)nc(C)c1C(=O)Nc1ccccc1,-1.2,1.6
Cc1ccc(Sc2ccc(/C=C(\C#N)C(N)=O)o2)cc1,-0.05,-1.3
CCCCOc1cccc(NC(=O)CSc2nc(C)cc(-c3cccnc3)c2C#N)c1,.,-0.07
Cc1ccc(Cl)cc1N1CCN(CC(=O)c2ccc3[nH]ccc3c2)CC1,-0.5,-0.54
COc1ccc(S(=O)(=O)N2CCNCC2)cc1OC,0.4,-1.5
CC(CSc1nnnn1-c1ccccc1)Cn1c(Br)nc2c1c(=O)[nH]c(=O)n2C (configuration not stated),2,.
CC(C)(C)C(=O)Cn1nnc(N2CCOCC2)n1,-0.6,-0.025
O=C(O)c1cccc2c1NC(c1ccccc1F)C1CC=CC21 (configuration not stated),.,46
N#CC(=Nc1ccccc1)C1=C(O)c2ccccc2C1=O,0.45,-1.2
Cc1nc(SCC2=C(C(=O)OC(C)C)C(c3ccccc3Br)C(C#N)=C(N)O2)c(C#N)c(C)c1C (configuration not stated),.,-0.085
c1ccc(-c2nc3cc(Cc4ccc5oc(-c6ccccn6)nc5c4)ccc3o2)nc1,1.9,.
COCc1c(C(=O)Nc2ccc(OC)cc2OC)oc2ccccc12,-0.7,.
COc1cccc(-c2nnn(Cc3nc4ccc(Cl)cc4n3CCO)n2)c1,0.3,.
CCOC(=O)C1CCCN(Cc2ccc3ccccc3c2)C1 (configuration not stated),-0.65,0.17
# New compounds follow:
SMILES,AID504770,Ba CapD inh
O=S(=O)(c1ccc(-n2cccn2)cc1)N1CCCc2ccccc21,-0.1,1.8
COc1ccc(S(=O)(=O)O/N=C2\CCSc3ccc(C)cc32)cc1,.,0.43
CS(=O)(=O)c1ccc(C(=O)OCc2ccccc2F)cc1,1.7,.
O=C(OCC(=O)N1N=C(c2ccc(Cl)cc2)CC1c1ccco1)c1ccccc1 (configuration not stated),-0.4,.
Cc1ccc(S(=O)(=O)c2ccccc2C(F)(F)F)cc1,.,-0.36
CCc1ccc(-c2nc(N)sc2CC(=O)O)cc1,-0.85,0.04
O=C(CCN1C(=O)c2ccccc2C1=O)OCc1ccco1,-0.5,.
CC(O)CNc1nc2ccccc2n1Cc1ccc(C#N)cc1 (configuration not stated),0.6,.
Cc1cc(NCCN(C)C)n2c(nc3ccccc32)c1C#N,.,27
COc1ccc(C(=O)N/N=C/c2ccc(C(=O)O)cc2)cc1,.,-1.8
CC1CCCCN1CCCNC(=O)Cn1ncc2ccc(Cl)cc21 (configuration not stated),-1.2,0.21
COC(=O)c1c(NC(=O)c2ccccc2)sc2c1CCC2,-0.3,3.5
CC(C)Oc1ccc(C(CC(N)=O)CC(=O)O)cc1 (configuration not stated),2.2,-1.2
COc1ccc(NC(=O)CCCC(=O)O)c(OC)c1,-0.8,0.68
O=C(OCCCc1ccccn1)N1CCN(c2ccccc2Cl)CC1,.,1.1
Cc1[nH]c2ccccc2c1C(=O)COc1ncnc2ccccc12,-0.3,-0.87
C=CCn1c(=O)c(C(=O)Nc2cccc(O)c2)c(O)c2ccccc21,0.05,-0.2
